2A StopGo: High Throughput Screening for Foot and Mouth Disease Virus Antivirals. human cells with a luciferase reporter of 2A StopGo recoding; control for the full effect not named in the record. 410,000 compounds, 1.2% hits. Potency, µM (top dose mostly 57.9 µM), for the others: top-dose signal change, negative = less light. AID 1159524, 2015; active = well fitted falling curve with a large enough effect; inconclusive = small, poorly fitted or top-dose-only effect; inactive = no such curve, though single readings can be large or run the other way; tested in HEK293T cells; also: % is scaled to controls: 0 for no effect and ±100 for the full control effect; nearly all actives have a fitted effect of over 45% in size; luciferase light after 4 h
SARS PLP yeast: qHTS of Yeast-based Assay for SARS-CoV PLP; S. cerevisiae expressing SARS-CoV PLpro, growth rescue; control for the full effect not named in the record; Potency, µM (top dose mostly 32.9 µM), for the others: top-dose activity, positive = growth rescue; 330,000 compounds, 0.19% hits; AID 485353, 2010; active means well fitted rising curve with a large enough effect; inconclusive means small, poorly fitted or top-dose-only effect; inactive means no such curve, though single readings can be large or run the other way; also: 0% is about no effect; nearly all actives have a fitted effect of over 55% in size; growth read by luminescence after 48 h
MARV entry inh: qHTS for inhibitors of binding or entry into cells for Marburg Virus. Marburg virus pseudotyped entry inhibition, cell reporter; control for the full effect not named in the record; about a third of the inactives were read at about 46 µM. Potency, µM (top dose mostly 37.8 µM), inactives show at the top dose activity change, negative = inhibition, usual class: inhibitors. 300,000 compounds, 1.8% hits. AID 540276, 2011; active = well fitted inhibition curve with a large enough effect; inconclusive = small, poorly fitted or top-dose-only effect, or effect the other way; inactive = flat fitted curve, though single readings scatter; tested in HEK293 cells; about a fifth of its hits are not listed in these tables; also: % is scaled to controls: 0 for no effect and ±100 for the full control effect; luciferase read-out
RE007 growth inh: qHTS Assay for Inhibitors of the HIV-1 protein Vpr | S. pombe RE007 Vpr strain, BacTiter-Glo ATP luminescence, 24 h; control for the full effect not named in the record | Potency, µM (titrated, usually from 92.2 µM), for inactives: at the highest dose activity change, negative = less growth | 360,000 compounds, 0.21% hits | AID 651644, 2012; active = well fitted falling curve with a large enough effect; inconclusive = small, poorly fitted or top-dose-only effect; inactive = no such curve, though single readings can be large or run the other way;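 also: % is scaled to controls: 0 for no effect and ±100 for the full control effect; nearly all actives have a fitted effect of over 50% in size; the assay follows cell death caused by Vpr and the record does not say whether a fall means rescue or toxicity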
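Fission yeast strain RE007, carrying one chromosomally integrated HIV-1 vpr copy, was seeded at OD 0.01 in PMG+AL medium with 23 nL pinned compound. After 24 h at 30 °C and 99% humidity, viability was read by BacTiter-Glo luminescence.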
NS1 inh: qHTS Assay for Inhibitors of Influenza NS1 Protein Function; S. cerevisiae slowed by influenza A NS1, growth recovery by OD600; AID 2326, 2010; 270,000 compounds, 0.4% hits; Potency, µM (top dose mostly 46.1 µM), for the others: at the top dose activity, positive = more growth; active means well fitted rising curve with a large enough effect; inconclusive means small, poorly fitted or top-dose-only effect; inactive means no such curve, though single readings can be large or run the other way; also: nearly all actives have a fitted effect of over 50% in size
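Read-out: OD600 growth recovery of NS1-expressing budding yeast. Cells grown overnight at 30C in -URA glucose medium, washed, resuspended and diluted 1:100 in 2% galactose assay medium, pH 6.0. Same strain lacking NS1 served as positive control.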
Cruzain noTriton: qHTS Assay for Promiscuous and Specific Inhibitors of Cruzain (without detergent) | Cruzipain (Trypanosoma cruzi), P25779 | purified cruzain, Z-FR-AMC fluorescence, no detergent | Potency, µM, without a hit: max response, negative = inhibition, usual class: inhibitors | 200,000 compounds, 2.3% hits | AID 1476, 2009;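 also: plate controls were enzyme without inhibitor for no effect and buffer without enzyme for full effect; nearly all actives have a fitted effect of over 40% in size; top concentration of the series not given in the record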
Target sequence (P25779 123-467 limits assumed): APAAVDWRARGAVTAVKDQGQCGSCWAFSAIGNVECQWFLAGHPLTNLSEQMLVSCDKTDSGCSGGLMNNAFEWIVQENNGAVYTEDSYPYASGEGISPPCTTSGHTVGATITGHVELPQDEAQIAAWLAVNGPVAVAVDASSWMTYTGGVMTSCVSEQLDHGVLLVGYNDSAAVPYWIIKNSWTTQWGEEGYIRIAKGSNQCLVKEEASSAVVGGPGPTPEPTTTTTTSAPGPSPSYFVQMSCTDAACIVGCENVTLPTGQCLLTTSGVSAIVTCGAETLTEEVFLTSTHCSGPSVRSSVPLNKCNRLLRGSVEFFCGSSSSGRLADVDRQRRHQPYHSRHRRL
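Purified cruzain at 1.5 nM, pre-incubated 15 min with compound at room temperature in 100 mM sodium acetate pH 5.5, 5 mM DTT, 0.00005% Triton X-100. Reaction started with 2 uM Z-FR-AMC; AMC fluorescence increase over 60 s gives rate.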
Cruzain inh Det: qHTS Assay for Promiscuous and Specific Inhibitors of Cruzain (with detergent). Cruzipain (Trypanosoma cruzi), P25779. purified cruzain, Z-FR-AMC fluorescence, 0.01% Triton. Potency, µM, inactives show max response, negative = inhibition, hits mostly inhibitors. 200,000 compounds, 0.43% hits. AID 1478, 2009;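 also: plate controls were neutral wells for no effect and buffer without enzyme for full effect; nearly all actives have a fitted effect of over 40% in size; top concentration of the series not given in the record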
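Steps: dispense cruzain (1.5 nM final) in acetate buffer pH 5.5 with DTT and 0.01% Triton X-100; pin-transfer compounds; incubate 15 min RT; add Z-FR-AMC (2 uM final); read fluorescence every 30 s, using the 60 s intensity change.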
LASV entry inh: qHTS for Inhibitors of binding or entry into cells for Lassa Virus; AID 540256, 2011; Lassa virus pseudotype entry inhibition, cell reporter; control for the full effect not named in the record; 300,000 compounds, 1.2% hits; Potency, µM (highest dose often 37.9 µM), inactives show at the highest dose activity change, negative = inhibition, hits mostly inhibitors; active means well fitted inhibition curve with a large enough effect; inconclusive means small, poorly fitted or top-dose-only effect, or effect the other way; inactive means flat fitted curve, though single readings scatter; tested in HEK293 cells; also: % is scaled to controls: 0 for no effect and ±100 for the full control effect; nearly all actives have a fitted effect of over 50% in size; luciferase read-out
* hit, by the source's call; ? = inconclusive; · = not tested or not shown; [ ] = dose if it differs, or a comment. Unless noted, calls follow the shape of the dose curve; as a rule, active = well fitted curve in the direction sought with a large enough effect; inconclusive = small, poorly fitted or top-dose-only effect, or another doubt; inactive = no such curve, though single readings can be large; an effect the other way counts as inactive or inconclusive. Potency is read from the fitted curve at half-maximal effect.

Compound	2A StopGo	SARS PLP yeast	MARV entry inh	RE007 growth inh	NS1 inh	Cruzain noTriton	Cruzain inh Det	LASV entry inh
CCOc1cc(C2C(C(=O)O)c3cc(OCC)c(OCC)cc3C(=O)N2C)ccc1O (stereo unspecified)	-3%	4%	-3%[46.1 µM]	4%	0%	0%	-1.6%	-5%
O=C(CCC1CCCN(C(=O)Cn2cnnn2)C1)NCc1ccc(F)c(F)c1 (stereo unspecified)	38%[activator]	2%	?	-11%	-2%	·	·	16%
CC(OC(=O)c1ccccc1CCc1ccccc1)C(N)=O (stereo unspecified)	0%	-2%	?	-6%	-9%	·	·	-22%[46.1 µM]
O=C(Nc1nnc(C2CC2)s1)C1CC(=O)N(c2ccc3c(c2)OCCO3)C1 (stereo unspecified)	-12%	12%	-5%	-7%	27%	-9%	-0.6%	-1%
Cc1cccc(C(=O)NN2C(=O)C3C(c4ccccc4)C=CC(c4ccccc4)C3C2=O)c1 (stereo unspecified)	-5%	-8%	?	0%	3.2µM*	-3%	-6.0%	-8%
CC(C)CC(=O)NC(c1ccccc1)c1c(O)ccc2ccccc12 (stereo unspecified)	-17%	0%	?	2%	22%	·	·	4%
O=C1NC(=O)C2(CCCC2)N1	-7%	·	0%	8%	·	·	·	?
COc1ccccc1OCCCn1c(C2CC(=O)N(c3ccccc3Cl)C2)nc2ccccc21 (stereo unspecified)	-17%	·	-5%[46.1 µM]	·	·	?	-11%	?
COc1ccc(CNC(=S)NCc2ccc(OC(C)C)cc2)cc1	-10%	?	7%	43%	16%	-4%	-7.3%	-12%
COc1ccc(S(=O)(=O)N2CCC(C(=O)Nc3ccccc3N3CCCC3)CC2)cc1OC	-24%	1%	·	14%	-23%	·	·	·
CC1=CC(C2CC(=O)N(c3ccccc3C)C2=O)CC2C(=O)N(c3ccccc3C)C(=O)C12 (stereo unspecified)	-6%	12%	?	5%	-8%	?	8.7%	?
CS(=O)(=O)c1ccccc1-c1nnc(NC(=O)C2=COCCO2)o1	0%	0%	14%	-11%	·	·	·	22%
COc1ccc(/C=C2\SC(=S)N(CCC(=O)Nc3ccc(C(=O)O)cc3)C2=O)cc1	49%[activator]	1%	·	-15%	12%	·	·	·
COc1ccc(CC(=O)N2CC(C)CC(C)C2)cc1 (stereo unspecified)	·	4%	24%	2%	0%	-1%	7.2%	-3%
CCC(=O)Nc1cccc(-n2nnnc2SCC(=O)c2ccc(C)c(C)c2)c1	?	?	?	2%	-4%	?	-5.7%	?
O=C(CSc1nc2nn(-c3ccccc3)c(=O)c-2c2n1CCCCC2)Nc1ccccc1[N+](=O)[O-]	15%	2%	3%	2%	·	·	·	-4%
CCNC(=S)N(CCCN(C)C)Cc1cc2cc3c(cc2[nH]c1=O)OCCO3	-11%	-3%	·	15%	1%	·	·	·
Cc1ccc(-c2cc(C(=O)NCc3ccccc3)c3c(-c4ccc(C)cc4)[nH]nc3n2)cc1	-14%	·	·	·	·	9%	1.8%	16%[46.1 µM]
CCc1ccc(NC(=O)CSc2ccc(-c3cccs3)nn2)cc1	-6%	·	·	·	·	?	-1.3%	-7%[46.1 µM]
NC(=O)CC(NC(=O)c1ccccc1)c1ccc(NCC2CC2)c([N+](=O)[O-])c1 (stereo unspecified)	-25%	1%	·	-5%	7%	·	·	·
COc1c(C=O)c2c(c(OC)c1OC)-c1ccc(OC)c(=O)cc1C(NC(C)=O)CC2 (stereo unspecified)	-6%	·	-3%	1%	·	·	·	?
CCOC(=O)N1CCN(C(=O)Cn2ncc3c4ccccc4n(Cc4ccc(F)cc4)c3c2=O)CC1	-16%	·	-16%[46.1 µM]	·	·	?	-12%	?
O=C(Oc1ccc(F)cc1)c1nc(SCc2ccc(F)cc2)ncc1Cl	-12%	·	-8%[46.1 µM]	·	·	-6%	-3.4%	-7%[46.1 µM]
Cc1cc(C)c2c(NC(=S)Nc3ccccc3)n[nH]c2n1	23%	-1%	2%	-16%	-13%	·	·	7%
CC(O)CNc1nc2ccccc2n1CC(=O)NCC(F)(F)F (stereo unspecified)	-6%	-2%	?	12%	·	·	·	-2%
COc1ccc(NC(=O)CN(CC(=O)Nc2ccc(OC)cc2)C(C)(C)CO)cc1	-15%	-1%	·	-1%	-1%	·	·	·
CC(NC(=O)c1noc2c1CCCC2)c1ccccc1 (stereo unspecified)	16%	8%	?	35µM*	-3%	2%	-2.6%	17%
CNC(=O)c1c(NC(=O)c2cc(-c3cc(C)c(C)cc3O)n[nH]2)sc2c1CCCC2	-7%	-2%	·	0%	3%	·	·	·
CC(=O)Nc1ccccc1OCC(=O)c1ccc2c(c1)OCO2	11%	-5%	-1%	5%	-7%	-17%	-0.3%	-10%
COc1ccc(C2CC2C(C)=O)cc1 (stereo unspecified)	33%[activator]	4%	21%[46.1 µM]	0%	·	·	·	10%[46.1 µM]
CC(C)C(=O)Nc1cccc(NC(=O)c2cc3ccccc3o2)c1	27%	-4%	-3%	1%	-35%	2%	-6.0%	17%
CCCCN1C(=O)/C(=C/C=C2/CC(C)(C)CN2C)SC1=S	16%	-16%	?	25%	8%	-6%	-9.4%	-1%
COc1ccc(C(=O)C2CCCN(Cc3ccc(C#CCCO)cc3)C2)c(OC)c1 (stereo unspecified)	?	-1%	·	3%	-3%	·	·	·
O=[N+]([O-])c1cccc(S(=O)(=O)Nc2ccc(S(=O)(=O)Nc3nccs3)cc2)c1	-8%	·	?	-7%	·	·	·	10%
Cc1ccc2sc(N(CCCN(C)C)C(=O)c3ccc(Br)s3)nc2c1C	-23%	-25%	15µM*	2%	·	·	·	?
COc1ccccc1NC(=O)C(=O)NCC(c1ccco1)N1CCc2ccccc2C1 (stereo unspecified)	-24%	1%	-11%	1%	·	·	·	9%[46.1 µM]
COC(=O)c1ccc(-c2nc(O)c3cnccn23)cc1	-12%	-5%	18%	-7%	-6%	3%	-4.5%	-4%
O=[N+]([O-])c1ccc(O)c(/C=N/Nc2ccc(Cl)nn2)c1	44%[activator]	0%	0.13µM*	-21%	-59%	7%	0.6%	?
CCCS(=O)(=O)C/C(N)=N/OC(=O)c1ccc(Cl)cc1	-1%	1%	-19%[14.2 µM]	4%	1%	·	·	1%
CC(=O)NC(CCS(C)(=O)=O)C(=O)Nc1ccc(Cl)c(Cl)c1 (stereo unspecified)	-26%	-3%	·	-7%	-8%	2%	-0.4%	·
CC(C)Oc1ccc(C(=O)Nc2ccc(N3CCCCC3)cc2)cc1	-24%	15%	?	-7%	15%	-15%	1.4%	1%
Cc1c2ccccc2c(C)c2c1ccc1ccccc12	13%	·	·	-16%	·	?	-3.2%	·
O=C(COC(=O)/C=C/c1ccc(Cl)cc1)Nc1ccccc1	11%	1%	11%[46.1 µM]	-3%	6%	·	·	7%
Cc1ccc(/C=N/n2nnnc2N)cc1[N+](=O)[O-]	14%	-1%	?	17%	4%	-10%	-2.1%	12%
CCc1ccccc1NC(=O)CC1S/C(=N\c2nccs2)N(CC)C1=O (stereo unspecified)	-5%	-1%	-14%	4%	-6%	-12%	-1.1%	0%

Two of the compounds above, field by field.
CCCCN1C(=O)/C(=C/C=C2/CC(C)(C)CN2C)SC1=S
  2A StopGo = 16% | SARS PLP yeast = -16% | MARV entry inh = ? | RE007 growth inh = 25% | NS1 inh = 8% | Cruzain noTriton = -6% | Cruzain inh Det = -9.4% | LASV entry inh = -1%
COc1ccccc1OCCCn1c(C2CC(=O)N(c3ccccc3Cl)C2)nc2ccccc21 (stereo unspecified)
  2A StopGo = -17% | SARS PLP yeast = · | MARV entry inh = -5%[46.1 µM] | RE007 growth inh = · | NS1 inh = · | Cruzain noTriton = ? | Cruzain inh Det = -11% | LASV entry inh = ?

Single values from the list:
In NS1 inh, COc1ccc(C(=O)C2CCCN(Cc3ccc(C#CCCO)cc3)C2)c(OC)c1 (stereo unspecified) has -3%
In Cruzain noTriton, CCCCN1C(=O)/C(=C/C=C2/CC(C)(C)CN2C)SC1=S has -6%
In LASV entry inh, CC(C)C(=O)Nc1cccc(NC(=O)c2cc3ccccc3o2)c1 has 17%
In RE007 growth inh, O=[N+]([O-])c1ccc(O)c(/C=N/Nc2ccc(Cl)nn2)c1 has -21%
In SARS PLP yeast, Cc1ccc2sc(N(CCCN(C)C)C(=O)c3ccc(Br)s3)nc2c1C has -25%

Continued:
Compound	2A StopGo	SARS PLP yeast	MARV entry inh	RE007 growth inh	NS1 inh	Cruzain noTriton	Cruzain inh Det	LASV entry inh
O=C(CN(Cc1ccc(F)cc1)C(=O)CCC(=O)Nc1ccccn1)NCc1ccco1	-13%	1%	6%	18%	-15%	7%	1.4%	-3%
Cc1ccccc1NC1=C/C(=N\S(=O)(=O)c2cccs2)c2ccccc2C1=O	10µM*	-28%	3.7µM*	?	-5%	?	-5.2%	?
O=C(CCC1CCCC1)N1CCC(N2CCCCCC2)CC1	-8%	-5%	-1%	0%	4%	6%	-4.0%	-1%
CCOC(=O)N1CCN(C(=O)CSCc2ccccc2C)CC1	24%	8%	?	1%	-4%	0%	7.6%	-13%
COC(=O)[C@@H](Cc1ccccc1)NC(=O)NCCc1ccccc1	3%	2%	?	-4%	6%	·	·	-2%[46.1 µM]
Cc1cc(OCCCCCNCCO)ccc1Cl	-8%	-31%	?	-29%	-1%	13%	-2.9%	?
COc1ccc(C)cc1NC(=O)c1oc2ccc(S(=O)(=O)N3CCOCC3)cc2c1C	-22%	·	·	·	·	1%	0.7%	-18%[46.1 µM]
O=C(CSc1nnc(CSc2nc3ccccc3s2)o1)NC1CCCCC1	-20%	4%	-13%	-6%	-5%	5%	1.7%	-16%
